Screening data deposited in PubChem BioAssay by National Center for Advancing Translational Sciences (NCATS).
Six1-Eya2 inh: blocks human Six1 binding to Eya2 | AlphaScreen GST-Six1/His-Eya2 binding, biochemical; active compounds read low; control for the full effect not named in the record | activity change, % (test concentration not listed) | 360,000 tested, 0.56% active; in the data active = activity change below about -65%; inconclusive = about -30% to -65%; inactive = above about -30%; note: % is set by controls: 0 for no effect and ±100 for the full control effect
Target sequence (O00167 whole entry, looked up): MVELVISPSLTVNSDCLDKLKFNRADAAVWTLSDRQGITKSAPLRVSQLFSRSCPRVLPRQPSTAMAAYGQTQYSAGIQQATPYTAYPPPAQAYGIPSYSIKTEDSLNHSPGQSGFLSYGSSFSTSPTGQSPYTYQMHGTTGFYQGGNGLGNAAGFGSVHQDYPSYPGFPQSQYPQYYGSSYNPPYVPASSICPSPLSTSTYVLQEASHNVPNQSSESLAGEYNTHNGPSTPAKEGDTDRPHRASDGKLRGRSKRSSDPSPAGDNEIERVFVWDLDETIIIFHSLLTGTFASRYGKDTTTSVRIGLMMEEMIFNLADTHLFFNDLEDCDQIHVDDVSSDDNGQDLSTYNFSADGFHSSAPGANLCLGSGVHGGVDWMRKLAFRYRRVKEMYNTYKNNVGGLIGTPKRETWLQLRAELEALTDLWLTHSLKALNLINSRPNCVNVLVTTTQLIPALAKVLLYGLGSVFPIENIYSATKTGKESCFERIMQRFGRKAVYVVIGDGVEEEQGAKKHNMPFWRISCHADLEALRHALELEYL
Target sequence (Q15475 whole entry, looked up): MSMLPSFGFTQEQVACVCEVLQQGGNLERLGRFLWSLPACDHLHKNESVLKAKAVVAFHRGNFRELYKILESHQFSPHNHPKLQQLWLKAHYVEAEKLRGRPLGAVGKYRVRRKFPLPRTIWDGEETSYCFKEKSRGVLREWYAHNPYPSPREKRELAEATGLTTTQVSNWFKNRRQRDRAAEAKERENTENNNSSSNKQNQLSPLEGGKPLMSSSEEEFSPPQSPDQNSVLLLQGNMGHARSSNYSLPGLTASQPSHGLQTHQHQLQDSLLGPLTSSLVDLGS
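Homogeneous AlphaScreen proximity assay pairing GST-Six1 with His-tagged Eya2 (added as 5X mix: 250 nM and 500 nM) in 50 mM Tris pH 8.0, 300 mM NaCl, 1 mM TCEP. Glutathione donor and nickel acceptor beads; 1 h, 37 °C, dark.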
D2 agonist: human D2 receptor agonism in beta-arrestin assay; DiscoveRx PathHunter D2 beta-arrestin, luminescence, 90 min; 100% = 57 uM dopamine signal; activation, % (test concentration not listed); 360,000 tested, 0.084% active; in the data active = activation above about 40%; inconclusive = about 15% to 40%; inactive = below about 15%; note: compound concentration not given in the record; the text of the record calls up to 30% inactive
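Agonist mode: compounds alone added to overnight-plated D2 PathHunter cells for 90 min at 37 C, with 57 uM final dopamine (EC100) defining full response. Beta-arrestin recruitment detected by chemiluminescent reagent, read after 1 h at ambient temperature.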
TRPML1 blocker: inhibitors of human TRPML1 channel. AID 624415. TRPML1-inducible cells, Ca2+ dye fluorescence, FDSS; active compounds read low; inhibition of EC80 agonist-evoked calcium signal. activity change, negative = inhibition, % (test concentration not listed). 390,000 tested, 0.02% active; in the data active means activity change below about -50%; inconclusive means about -30% to -50%; inactive means above about -30%;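 note: stimulus is agonist 54-4 at its EC80 concentration; % is set by controls: 0 for no effect and ±100 for the full control effect; compound concentration not given in the record; the text of the record puts the active cut at -80%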
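Calcium fluorescence in TRPML1-DL cells induced overnight with Tet: a 110 s read after compound pin addition, then a 110 s antagonist read after challenge with 54-4 at 4 uM final (EC80).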
TRPML1 ag: activates the human TRPML1 channel; Q9GZU1; TRPML1-expressing cells, Ca2+ dye fluorescence, FDSS; host cell line not named in the record; reference of the full effect not given here; activation, % (test concentration not listed); 410,000 tested, 0.12% active; AID 624414; in the data active = activation above about 50%; inconclusive = about 30% to 50%; inactive = below about 30%; note: 0% is about no effect; the text of the record puts the active cut at 80%
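Calcium fluorescence on an FDSS kinetic reader gave the read-out. Tet-induced TRPML1-DL cells were plated overnight, dye-loaded (Ca8 with quencher, 45-90 min, room temperature, dark), then read 110 s after compound addition, and again 110 s after 4uM final 54-4 (EC80).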
D2 PAM: positive allosteric modulators of human D2 dopamine receptor; DiscoveRx D2 beta-arrestin cells, luminescence, 90 min; 100% = 57 uM dopamine signal; potentiation, % (test concentration not listed); P14416; AID 624464; 360,000 tested, 0.23% active; active = potentiation of 50% or more; inconclusive = 30% to 50%; inactive = 30% or less;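 note: compound concentration not given in the record; tested on top of an EC20 dose of dopamine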
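PathHunter D2 cells, attached overnight at 37 deg C, received compound in DMSO plus dopamine at EC20 (50 nM final) for 90 min at 37 deg C. Beta-arrestin recruitment was read as luminescence after 1 h with detection reagent at ambient temperature.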
PINK1 modulator: changes PINK1 expression | Potency, µM (doses to about 76.6 µM), without a hit: at the highest dose activation (PINK1 increase), actives largely listed as activators | PINK1 immunofluorescence, high-content cytometry, 24 h | AID 624263 | 410,000 tested, 0.2% active; active = well fitted activation curve with a large enough effect; inconclusive = small, poorly fitted or top-dose-only effect; inactive = flat fitted curve, though single readings scatter; cell line not stated here;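 note: potency is the fitted concentration of half-maximal effect; % of control where 0% means no effect; nearly all actives have a fitted effect of over 65% in size; a mitochondrial uncoupler was the plate control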
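PINK1 protein, normally rapidly degraded, was detected by immunofluorescence after 24 hour compound treatment of a stable cell line. Titration data (5 concentrations) came from laser-scanning cytometry, with CCCP-treated wells as controls.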
Active calls of the source: *; u = inconclusive; x = no result given; & = joins results of further samples; [ ] = another dose, or the depositor's remark.

nr	Compound	Six1-Eya2 inh	D2 agonist	TRPML1 blocker	TRPML1 ag	D2 PAM	PINK1 modulator
1	O=C(N/N=C/c1c[nH]c2c1ccc1ccccc12)c1ccc([N+](=O)[O-])cc1	-3.6	3.2	0.2	1.2	0.3	1.9%
2	O=S(=O)(Nc1ccccc1N1CCCCC1)c1cccs1	12.2	-4.7	14.7	0.5	-10.6	-1.2%
3	C=CCn1c(Cc2ccc(OC(C)C)c(Cl)c2)nnc1SCC(N)=O	8.2	0.8	-24.5	1.3	0.7	5.2%
4	Cc1nc(SCc2nc3ccccc3[nH]2)c2oc3ccccc3c2n1	-17.0	-4.0	-4.5	0.2	-1.3	-0.5%
5	CCOC(=O)c1cn2nc(SCc3ccccc3)nc2nc1C	0.7	2.2	25.3	1.2	0.0	-0.7%
6	N#Cc1ccccc1OCC(=O)Nc1nnc(C2CC2)s1	5.5	-0.2	-17.8	2.6	-0.4	3.4%
7	Cc1nc(CCNS(=O)(=O)c2cccnc2)cs1	8.0	-0.4	-10.4	-0.6	-3.1	0.5%
8	Nn1c(SCC(=O)Nc2ccc3c(c2)OCCO3)nnc1C(F)(F)F	1.9	-0.3	10.5	-0.3	23.2	-0.4%
9	CSc1ccc(/C=C2\CCn3c2nc2cc(C(=O)O)ccc2c3=O)cc1	-6.3	1.2	11.0	-1.0	-6.9	8.0%
10	CC(=O)NCCc1c[nH]c2ccc(OCc3ccccc3)cc12	-0.8	-8.4	-13.8	0.6	-1.3	-0.3%
11	Cc1ccc(NC(=O)NCCSc2ccc(C)cc2)cc1	-9.5	-4.9	-13.7	1.4	-16.3	0.6%
12	CCCS(=O)(=O)c1nc(C)cc(C)c1S(C)(=O)=O	-5.1	-1.7	-7.1	-0.1	-3.9	-0.6%
13	CCc1ccccc1OCC(=O)Nc1nnc(C2CC2)s1	2.6	-2.7	-19.7	1.0	-11.9	3.2%
14	Cc1c(CNC(=O)C2CC2)c(-n2cccc2)n(Cc2ccccc2)c1C	1.9	-3.2	4.9	1.0	-1.5	8.6%
15	O=C(O)C(Cc1ccccc1)N1C(=O)C2C3CCC(C3)C2C1=O (stereo unspecified)	9.4	-2.0	-6.8	0.4	-8.1	0.2%
16	O=C(Nc1cc(-c2nc3ccccc3s2)ccc1Cl)c1ccc2c(c1)OCO2	28.4	1.4	-3.3	0.9	-7.0	x
17	CC(Sc1nc(N)cc(=O)[nH]1)C(=O)N1CCOCC1 (stereo unspecified)	0.0	-6.2	-12.8	1.8	-20.9	0.3%
18	CCCCn1c(N)c(N(CC)C(=O)c2cc(CC)c(C)s2)c(=O)[nH]c1=O	3.8	0.6	0.7	0.4	25.0	-1.2%
19	CC1=C(C(=O)Nc2ccc(C)cc2C)C(c2cccc([N+](=O)[O-])c2)n2nc(C(=O)OC(C)C)nc2N1 (stereo unspecified)	0.3	-7.5	-3.8	-0.4	1.6	13.3%
20	CCOc1cc(/C=C2\NC(=O)NC2=O)ccc1OC(C)C(=O)O (stereo unspecified)	0.3	-1.1	0.3	-0.2	-3.7	2.4%
21	CC1CCc2c(sc(N)c2C(N)=O)C1 (stereo unspecified)	-3.9	3.3	0.7	-0.1	1.1	5.9%[38.3 µM]
22	COc1cccc(/C=N/n2nnc3c(cnn3-c3ccccc3)c2=O)c1	1.2	3.4	-3.6	0.5	u	11.0%
23	COc1ccc([C@H]2/C=C\CN(S(C)(=O)=O)[C@@H](C)C(=O)N2Cc2ccc(F)cc2)cc1	1.7	-2.6	-28.0	-0.9	-17.7	0.7%
24	COc1ccc(C(=O)SC2=NCCS2)cc1OC	0.7	-0.7	-22.8	-0.6	-0.4	x
25	CCOc1ccccc1NC(=O)Nc1ccncc1	-2.1	-0.7	41.7	0.6	-22.5	0.8%
26	Cc1ccc(C)c(/C=C2\CCn3c2nc2cc(C(=O)O)ccc2c3=O)c1	4.9	-7.8	-22.7	1.2	-4.3	1.4%
27	CN1C(=O)CSC1=Nc1cccc(C(=O)O)c1	-2.5	-3.9	3.1	-0.2	-18.6	-0.3%
28	COc1ccccc1NC(=O)Nc1ccc(-n2ccc(C(F)(F)F)n2)cc1	-13.0	1.3	76.1	0.7	-14.5	u
29	COc1ccc(OCC(O)CNS(=O)(=O)c2cccc(Cl)c2)cc1 (stereo unspecified)	0.1	-0.2	16.1	-0.9	-4.5	-0.3%
30	CC(NC(=O)CN(C)Cc1nc2ccccc2c(=O)[nH]1)c1ccccc1 (stereo unspecified)	-6.7	-3.5	32.3	3.8	0.6	-0.3%
31	COC(=O)c1ccc(/C=N/N2C(C)CCCC2C)cc1 (stereo unspecified)	-16.3	-3.8	16.3	1.3	-6.8	12.1%
32	CCCN(C(=O)CSc1nnc(-c2ccoc2C)n1N)C1CCS(=O)(=O)C1 (stereo unspecified)	2.2	0.8	-8.9	0.2	-9.3	1.0%
33	CCOC(=O)C1=C(C)Nc2nc(SCC)nn2C1c1ccc(OC)cc1 (stereo unspecified)	6.3	1.1	-12.1	1.6	-3.2	13.6%
34	O=C(O)C1C(c2ccccc2)C(C(=O)N2CCOCC2)C1c1ccccc1 (stereo unspecified)	-1.8	-2.7	-1.7	-0.9	-14.5	-12.4%[38.3 µM]
35	CCOC(=O)c1ccc(NS(=O)(=O)c2ccc3c(c2)NC(=O)CCS3)cc1	-5.4	0.0	14.7	-0.6	-6.6	3.1%
36	CC(C)C[C@@H](CN1CCC[C@H]1CN1C(=O)C(=O)NC[C@@H]1Cc1ccccc1)N1C[C@H](Cc2ccccc2)N(CC2CCCCCC2)C(=O)C1=O	-5.4	x	x	-0.6	x	1.4%
37	CCOc1ccc(CCNC(=O)Cn2nc(C)n3c(cc4occc43)c2=O)cc1OCC	x	x	-9.1	-1.0	x	-0.7%
38	O=C(Nc1ccc(C(=O)O)cc1)Nc1cccc([N+](=O)[O-])c1	-8.7	-5.1	1.6	0.0	-31.3	-0.9%
39	COc1ccc(OCCOC(=O)CNC(=O)c2ccc(F)cc2)cc1	-3.9	-0.2	-1.6	-0.4	-0.7	0.0%
40	C/C=C(\C)CN1CCC(n2nccc2NC(=O)CCc2ccccc2)CC1	3.8	-3.0	32.4	0.3	-33.0	-0.7%
41	COc1ccc(NS(=O)(=O)c2cc(N)ccc2N2CCCCC2)cc1	-6.5	0.4	4.3	1.3	-0.7	4.2%
42	COc1ccc(CNc2nc3c(-c4ccc(C)cc4)nnn3c3ccccc23)cc1	x	x	5.8	-0.9	x	2.0%
43	Cc1cccc(Nc2nc(N3CCOCC3)nc(N3CCOCC3)n2)c1	-3.5	-1.7	0.4	0.1	-8.2	2.6%
44	CC(C)C[C@H](N)c1nnc(S(=O)(=O)Cc2ccc(F)cc2)o1	-1.1	-6.9	41.1	0.5	-37.6	-0.7%
45	CCOC(=O)c1c(C)oc2nc(C)nc(NCCCN3CCN(c4cc(C)ccc4C)CC3)c12	x	x	5.8	-0.2	x	-0.8%
46	COC(=O)[C@@H]1C[C@@]2(O)[C@@H](O)[C@@H](O)[C@@H](O)C[C@H]2N1Cc1ccc(Cl)cc1	4.4	-1.8	-0.9	0.6	-3.3	-0.6%
47	CCN1CCCC1CNC(=O)C(=O)NCCc1ccc(OC)c(OC)c1 (stereo unspecified)	0.6	2.1	-2.9	0.1	-0.9	0.2%
48	Cn1c(=O)c2c(nc(NCCO)n2CCCc2ccccc2)n(C)c1=O	-0.1	-5.4	-1.4	0.0	-5.3	-0.7%
49	Cc1cc(C)cc(NC(=O)CCC(=O)N2CCSc3ccccc32)c1	-3.3	2.9	-12.0&32.4	0.5&1.3	0.0	4.9%&3.9%
50	CC(=O)c1ccc(NC(=O)C2(c3ccccc3)CCOCC2)cc1	-1.2	0.5	5.1	-0.5	-20.6	-1.2%
51	CCOc1ccccc1NC(=O)C1CCCN1S(=O)(=O)c1ccccc1C(F)(F)F (stereo unspecified)	1.8	5.8	2.1	3.3	-1.1	-0.5%
52	O=c1oc2ccccc2c(N2CCN(c3ccccc3F)CC2)c1CN1CCCC1	x	x	16.2	-0.3	x	1.5%
53	COc1ccc(OC)c(N2C(N)=C(C#N)C(c3ccc(OC)c(O)c3)C3=C2CC(C)(C)CC3=O)c1 (stereo unspecified)	-3.0	1.8	-8.3	-0.5	-1.2	8.9%
54	CC1CC(=O)Nc2ccccc2N1S(=O)(=O)c1ccc(F)cc1F (stereo unspecified)	4.7	-0.7	-8.2	0.5	-4.3	1.8%
55	COc1ccc(-n2c(Cc3ccccc3)nnc2SCc2ccc([N+](=O)[O-])cc2)cc1	-5.6	-1.4	20.4	5.0	-2.2	-1.5%
56	COc1ccc(N(CC(=O)N2CCN(c3ccc(Cl)cc3)CC2)S(=O)(=O)c2c(C)noc2C)cc1	-11.2	3.3	-2.5	-0.4	-1.0	0.9%

(further entries)
nr	Compound	Six1-Eya2 inh	D2 agonist	TRPML1 blocker	TRPML1 ag	D2 PAM	PINK1 modulator
57	CC(=O)O[C@@H](C[C@@H](C)C1=C2C[C@H](O)C3[C@@]4(C)CCC(=O)C(C)(C)C4CC[C@]3(C)[C@@]2(C)CC1)[C@H]1OC1(C)C (stereo partly specified)	-8.8	-1.9	0.7	-0.7	-7.4	-1.5%
58	CC(=O)c1cccc(NC(=O)C2CCN(S(=O)(=O)c3c(C)n[nH]c3C)CC2)c1	3.1	-2.1	-14.6	0.1	-14.5	0.2%
59	CC(=O)Nc1ccc(S(=O)(=O)NCCC(=O)N2CCC(Cc3ccccc3)CC2)cc1	3.5	3.5	36.1	0.0	13.8	-1.9%
60	CCOC(=O)c1ccc(Nc2cc(C)nc(-c3ccccc3O)n2)cc1	-12.0	3.5	-4.0	0.4	u	x
61	COc1ccc(Cl)cc1NC(=O)C1CCN(C(=O)C2CC(=O)N(c3ccc(C)cc3)C2)CC1 (stereo unspecified)	8.5	-2.7	46.1	0.5	-2.4	-0.2%
62	CC(C)OC(=O)COc1cc(O)c2c(=O)cc(-c3ccccc3)oc2c1	-0.3	-0.8	-2.6	1.7	-5.0	8.8%
